UUG fidelity = alters start codon recognition fidelity in yeast; S. cerevisiae UUG-firefly luciferase reporter, luminescence/redox ratio; 350,000 tested, 0.13% active; activity score, % at 18.7 µM;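 active means replicate mean at a twofold rise or more, about +100% in these data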;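 further: firefly luciferase made from a UUG start codon reports start codon fidelity; reporter light over untreated wells divided by growth signal over untreated wells; some hits fall short of that in this replicate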
Numbers without * were called inactive. A portion of the library. The share of hits here may be higher or lower than overall.

UUG fidelity,compound
-4,Cc1noc(C)c1NC(=O)N(C)C[C@H]1Oc2c(NC(=O)c3nc4ccccc4s3)cccc2C(=O)N([C@H](C)CO)C[C@@H]1C
-4,Cc1ccc(S(=O)(=O)Nc2ccc3c(c2)C(=O)N([C@H](C)CO)C[C@H](C)[C@H](CN(C)C)O3)cc1
-9,CNC[C@H]1Oc2c(NS(=O)(=O)c3ccc(C)cc3)cccc2C(=O)N([C@H](C)CO)C[C@H]1C
28,CN(C)CC#Cc1ccc([C@H]2[C@H]3CN(CC4CC4)CCCCN3[C@H]2CO)cc1
-9,CN1C(=O)c2cc(NS(=O)(=O)c3cccc(F)c3)ccc2OC[C@@H]2O[C@H](CC(=O)O)CC[C@H]21
-19,COc1ccccc1NC(=O)N1CC[C@H]2[C@@H]1c1cc(-c3ccccc3)ccc1N(C)[C@H]2CO
-6,C[C@@H]1CN([C@H](C)CO)C(=O)c2cc(NC(=O)Nc3ccc(C(F)(F)F)cc3)ccc2O[C@H]1CN(C)Cc1ccncc1
11,COCC#Cc1ccc([C@@H]2[C@H](CO)N3CCCCN(C(=O)CN(C)C)C[C@@H]23)cc1

Retrieved one by one from the list above (4):
UUG fidelity,compound
-4,Cc1noc(C)c1NC(=O)N(C)C[C@H]1Oc2c(NC(=O)c3nc4ccccc4s3)cccc2C(=O)N([C@H](C)CO)C[C@@H]1C
-19,COc1ccccc1NC(=O)N1CC[C@H]2[C@@H]1c1cc(-c3ccccc3)ccc1N(C)[C@H]2CO
-9,CN1C(=O)c2cc(NS(=O)(=O)c3cccc(F)c3)ccc2OC[C@@H]2O[C@H](CC(=O)O)CC[C@H]21
-9,CNC[C@H]1Oc2c(NS(=O)(=O)c3ccc(C)cc3)cccc2C(=O)N([C@H](C)CO)C[C@H]1C

New compounds follow.
UUG fidelity,compound
10,C[C@@H]1CN([C@H](C)CO)C(=O)c2cccc(NS(=O)(=O)c3ccc(F)cc3)c2O[C@@H]1CN(C)S(=O)(=O)c1cccs1
22,C[C@@H]1CN([C@H](C)CO)C(=O)c2cc(NS(=O)(=O)c3cccs3)ccc2O[C@H]1CN(C)Cc1ccc(-c2ccccc2)cc1
-6,C[C@H]1CN([C@@H](C)CO)C(=O)c2cc(NC(=O)Cn3cnnn3)ccc2O[C@@H]1CN(C)S(=O)(=O)c1cn(C)cn1
-12,C[C@H](CO)N1C[C@H](C)[C@H](CN(C)C(=O)Nc2ccc3c(c2)OCO3)Oc2ccc(NC(=O)Cc3cn(C)c4ccccc34)cc2C1=O
5,C[C@@H]1CN([C@H](C)CO)C(=O)Cc2cc(NC(=O)Nc3ccccc3)ccc2O[C@H]1CN(C)Cc1ccc2c(c1)OCO2
29,CO[C@@H]1CN(C)C(=O)c2cc(NC(=O)C3CCCC3)ccc2OC[C@@H](C)N(C(=O)Nc2ccc(C(F)(F)F)cc2)C[C@H]1C
22,CC(C)NC(=O)Nc1ccc2c(c1)CC(=O)N([C@@H](C)CO)C[C@H](C)[C@@H](CN(C)Cc1ccc(C(F)(F)F)cc1)O2
-6,O=C(Cc1ccccc1)N1CC[C@@H]2[C@@H](CO)Nc3ccc(Br)cc3[C@@H]21
4,O=C(C1CC1)N1CCCCN2[C@H](C1)[C@H](c1ccc(C#CC3(O)CCCC3)cc1)[C@@H]2CO
12,O=C(Nc1cccc(Cl)c1)N1C[C@@H]2[C@H](c3ccccc31)[C@H](CO)N2CC1CCOCC1
11,C[C@H](CO)N1C[C@H](C)[C@H](CN(C)S(=O)(=O)c2ccc(Cl)cc2)Oc2ccc(N(C)C)cc2CC1=O
-10,COc1ccc(C#Cc2ccc([C@@H]3[C@H]4CN(C(=O)Nc5cccc(F)c5)CCCCN4[C@H]3CO)cc2)cc1
5,C[C@H]1CN([C@@H](C)CO)C(=O)c2cccc(NC(=O)c3ccc(-c4nccs4)cc3)c2O[C@@H]1CN(C)C(=O)Nc1ccc(C(F)(F)F)cc1
-13,Cc1noc(C)c1S(=O)(=O)Nc1ccc2c(c1)C(=O)N([C@@H](C)CO)C[C@H](C)[C@H](CN(C)Cc1ccc3c(c1)OCO3)O2
-5,CO[C@H]1CN(C)C(=O)c2cc(NC(=O)Cc3ccccc3)ccc2OC[C@H](C)N(C(=O)c2ccccc2F)C[C@@H]1C
22,COc1ccc(NC(=O)N(C)C[C@@H]2Oc3ccc(NC(=O)C4CCCCC4)cc3C(=O)N([C@H](C)CO)C[C@@H]2C)cc1
-9,C[C@H]1CN([C@@H](C)CO)C(=O)c2cc(NC(=O)Cc3cn(C)c4ccccc34)ccc2O[C@H]1CN(C)S(=O)(=O)c1cn(C)cn1
-4,CO[C@H]1CN(C)C(=O)c2ccc(NC(C)=O)cc2OC[C@@H](C)N(CCc2ccccc2)C[C@@H]1C
36,Cc1cccc(-c2ccc([C@H]3[C@H](CO)N4CCCCN(C(=O)c5ccc6c(c5)OCO6)C[C@@H]34)cc2)c1
0,CCCC(=O)Nc1ccc2c(c1)C(=O)N(C)C[C@@H](OC)[C@@H](C)CN(CCc1ccccc1)[C@@H](C)CO2
8,O=C(CC1CC1)N1[C@@H]2CN(S(=O)(=O)c3ccccc3F)c3ccccc3[C@@H]2[C@@H]1CO
-4,CO[C@@H]1CN(C)C(=O)c2cc(NC(=O)C3CCCCC3)ccc2OC[C@@H](C)N(Cc2cccnc2)C[C@@H]1C
4,C[C@H]1CN([C@@H](C)CO)C(=O)c2cc(NC(=O)Nc3ccccc3)ccc2O[C@H]1CN(C)Cc1ccc2c(c1)OCO2
-9,COc1ccc(CN(C)C[C@@H]2Oc3c(NS(=O)(=O)c4cn(C)cn4)cccc3C(=O)N([C@H](C)CO)C[C@@H]2C)cc1
-15,CO[C@@H]1CN(C)C(=O)c2cc(NC(=O)C3CC3)ccc2OC[C@@H](C)N(CC2CCCC2)C[C@@H]1C
-10,COCC(=O)N1C[C@H](C)[C@@H](OC)CN(C)C(=O)c2ccc(NC(=O)c3cc(C)on3)cc2OC[C@H]1C
51,COc1cccc(CN2[C@@H]3CN(C(=O)c4cccnc4)c4ccccc4[C@@H]3[C@@H]2CO)c1
4,C[C@H](O)C#Cc1ccc([C@@H]2[C@@H](CO)N3CCCCN(C(=O)c4ccc(F)cc4)C[C@H]23)cc1
0,C[C@@H]1CN([C@H](C)CO)C(=O)CCCn2nncc2CO[C@@H]1CN(C)C(=O)Nc1ccc(C(C)(C)C)cc1
8,COc1ccc(S(=O)(=O)N2CCCCN3[C@H](CO)[C@@H](c4ccc(C5=CCCC5)cc4)[C@@H]3C2)cc1
12,COc1cccc(S(=O)(=O)Nc2ccc3c(c2)[C@H]2C[C@@H](CC(=O)N(C)C)O[C@@H](CO)[C@H]2O3)c1
-13,COc1ccc(NC(=O)Nc2ccc3c(c2)C(=O)N([C@H](C)CO)C[C@H](C)[C@H](CN(C)Cc2ccncc2)O3)cc1
-16,CCS(=O)(=O)Nc1ccc2c(c1)C(=O)N(C)C[C@@H](OC)[C@H](C)CN(CC1CCCCC1)[C@H](C)CO2
10,COCC(=O)Nc1ccc2c(c1)[C@@H]1C[C@@H](CC(=O)N3CCc4ccccc4C3)O[C@@H](CO)[C@@H]1O2
-3,C[C@@H]1CN([C@H](C)CO)C(=O)c2cc(NC(=O)Cn3cnnn3)ccc2O[C@@H]1CN(C)S(=O)(=O)c1cn(C)cn1
-1,O=C(C[C@@H]1C[C@H]2c3cc(NC(=O)NC4CCCC4)ccc3O[C@H]2[C@@H](CO)O1)NCc1ccc(Cl)cc1
-9,CCCNC(=O)Nc1ccc2c(c1)OC[C@H](C)N(Cc1ccccn1)C[C@H](C)[C@H](OC)CN(C)C2=O
-2,C[C@@H]1CN([C@H](C)CO)C(=O)c2cc(NC(=O)NC3CCCCC3)ccc2O[C@@H]1CN(C)S(=O)(=O)c1ccc(F)cc1
-25,CN1c2ccc(-c3ccc(F)cc3)cc2[C@@H]2[C@@H](CCN2C(=O)Cc2cccnc2)[C@@H]1CO
-7,O=C(C1CCCC1)N1C[C@@H]2[C@H](c3ccccc31)[C@@H](CO)N2C(=O)Cc1ccccn1
9,C[C@@H]1CN([C@@H](C)CO)C(=O)CCCn2nncc2CO[C@@H]1CN(C)CC1CCCCC1
10,CS(=O)(=O)Nc1ccc2c(c1)[C@@H]1C[C@H](CC(=O)N3CCOCC3)O[C@H](CO)[C@@H]1O2
1,C[C@@H]1CN([C@@H](C)CO)C(=O)Cc2cc(NC(=O)Cc3ccccc3)ccc2O[C@H]1CN(C)S(=O)(=O)c1ccc(F)cc1
3,CN1C(=O)c2cc(NC(=O)C3CCCC3)ccc2OC[C@@H]2O[C@H](CC(=O)NCC(F)(F)F)CC[C@H]21
-8,COc1ccc(S(=O)(=O)N(C)C[C@H]2Oc3ccc(NC(=O)Nc4ccc(F)cc4)cc3C(=O)N([C@@H](C)CO)C[C@@H]2C)cc1
-6,COCC(=O)NC[C@H]1[C@@H](c2ccc(C3=CCCC3)cc2)[C@@H](CO)N1C(=O)C1CC1
2,C[C@@H]1CN([C@H](C)CO)C(=O)c2c(c3ccccc3n2C)-c2ccccc2CO[C@@H]1CN(C)C(=O)c1ccccc1
11,C[C@@H]1CN([C@@H](C)CO)C(=O)c2cc(NC(=O)Nc3cccc4ccccc34)ccc2O[C@@H]1CN(C)S(=O)(=O)c1cn(C)cn1
10,CCCC(=O)N1C[C@H]2[C@@H](c3ccccc31)[C@H](CO)N2C(=O)Nc1ccc(F)cc1
-4,O=C(NCCc1ccccc1)[C@H]1N[C@H]2c3ccc(-c4ccccc4)c(=O)n3C[C@H]2[C@@H]1CO
-8,CCCC(=O)Nc1ccc2c(c1)C(=O)N(C)C[C@H](OC)[C@@H](C)CN(S(=O)(=O)c1cn(C)cn1)[C@H](C)CO2
2,COc1cccc(S(=O)(=O)N2CCCCN3[C@H](C2)[C@H](c2ccc(C#CC(C)C)cc2)[C@@H]3CO)c1
-8,CCS(=O)(=O)N1CCCCN2[C@H](CO)[C@H](c3ccc(C#Cc4ccccn4)cc3)[C@@H]2C1
-2,O=C(Nc1ccc(F)cc1)N1C[C@@H]2[C@H](c3ccccc31)[C@@H](CO)N2C(=O)c1cccnc1
-16,CCC(=O)Nc1ccc2c(c1)C(=O)N(C)C[C@H](OC)[C@H](C)CN(C(=O)CC1CC1)[C@@H](C)CO2
-13,CCCC(=O)Nc1ccc2c(c1)C(=O)N(C)[C@@H]1CC[C@@H](CC(=O)NCCc3ccccc3)O[C@H]1CO2

Next part
UUG fidelity,compound
-4,C/C=C/c1ccc([C@H]2[C@H](CO)N(C(=O)CC)[C@H]2CNC(=O)CC2CC2)cc1
5,CCC(=O)N(C)C[C@@H]1[C@H](c2ccc(C3=CCCCC3)cc2)[C@H](CO)N1C(=O)CC
19,O=C(Nc1cc(F)ccc1F)N1C[C@@H]2[C@H](c3ccccc31)[C@H](CO)N2Cc1cccnc1
-9,COc1ccc(-c2ccc3c(c2)[C@@H]2[C@@H](CCN2S(=O)(=O)c2ccccc2F)[C@H](CO)N3C)cc1
-2,CC(C)NC(=O)N1C[C@H]2[C@@H](c3ccccc31)[C@@H](CO)N2C(=O)NC(C)C
1,CC(C)NC(=O)N1CCCCN2[C@H](CO)[C@@H](c3ccc(C#C[C@H](C)O)cc3)[C@H]2C1
2,C[C@@H]1CN([C@H](C)CO)C(=O)c2cc(N(C)C)ccc2O[C@H]1CN(C)S(=O)(=O)c1ccc(Cl)cc1
-3,COc1ccc(NC(=O)Nc2ccc3c(c2)C(=O)N([C@H](C)CO)C[C@H](C)[C@H](CN(C)S(C)(=O)=O)O3)cc1

Sorted by number of heavy atoms (highest first): 6 of the compounds above
UUG fidelity,compound
-6,C[C@@H]1CN([C@H](C)CO)C(=O)c2cc(NC(=O)Nc3ccc(C(F)(F)F)cc3)ccc2O[C@H]1CN(C)Cc1ccncc1
0,C[C@@H]1CN([C@H](C)CO)C(=O)CCCn2nncc2CO[C@@H]1CN(C)C(=O)Nc1ccc(C(C)(C)C)cc1
-1,O=C(C[C@@H]1C[C@H]2c3cc(NC(=O)NC4CCCC4)ccc3O[C@H]2[C@@H](CO)O1)NCc1ccc(Cl)cc1
12,COc1cccc(S(=O)(=O)Nc2ccc3c(c2)[C@H]2C[C@@H](CC(=O)N(C)C)O[C@@H](CO)[C@H]2O3)c1
-25,CN1c2ccc(-c3ccc(F)cc3)cc2[C@@H]2[C@@H](CCN2C(=O)Cc2cccnc2)[C@@H]1CO
4,O=C(C1CC1)N1CCCCN2[C@H](C1)[C@H](c1ccc(C#CC3(O)CCCC3)cc1)[C@@H]2CO

Next section.
UUG fidelity,compound
-1,C[C@@H]1CN([C@H](C)CO)C(=O)c2cc(NS(=O)(=O)c3ccc(Cl)cc3)ccc2O[C@H]1CN(C)C(=O)Nc1ccc(F)cc1
21,CCCNC(=O)N1C[C@H]2[C@@H](c3ccccc31)[C@H](CO)N2C(=O)c1ccccc1
-11,C[C@H]1CN([C@@H](C)CO)C(=O)c2cccc(NC(=O)C3CC3)c2O[C@@H]1CN(C)CC1CC1
15,C[C@H](CO)N1C[C@H](C)[C@@H](CN(C)C(=O)NC2CCCCC2)Oc2ccc(NC(=O)Cc3cn(C)c4ccccc34)cc2CC1=O
-2,CCC(=O)N1CC[C@@H]2[C@H]1c1cc(C#Cc3ccc(F)cc3)ccc1N[C@@H]2CO
0,CC(=O)N1[C@@H](CO)[C@H](c2ccccc2)[C@@H]1CN(CC1CCC1)C(=O)CN(C)C
39,C[C@H](O)C#Cc1ccc([C@@H]2[C@H](CO)N3CCCCN(S(=O)(=O)c4ccccc4)C[C@@H]23)cc1
-5,C[C@H]1CN([C@@H](C)CO)C(=O)c2cccc(N(C)C)c2O[C@@H]1CN(C)S(=O)(=O)c1ccccc1
22,Cc1cccc(S(=O)(=O)N2CCCCN3[C@H](CO)[C@H](c4ccc(-c5cccnc5)cc4)[C@@H]3C2)c1
-1,COc1ccc(NC(=O)N(C)C[C@H]2OCc3cnnn3CCCC(=O)N([C@H](C)CO)C[C@H]2C)cc1
-12,C[C@@H]1CN([C@H](C)CO)C(=O)c2cccc(NS(=O)(=O)c3cn(C)cn3)c2O[C@@H]1CN(C)C(=O)Nc1ccc2c(c1)OCO2
4,COc1ccc(NC(=O)N(C)C[C@@H]2OCc3ccccc3-c3ccccc3C(=O)N([C@@H](C)CO)C[C@H]2C)cc1
2,CC(=O)N1CCCCN2[C@@H](CO)[C@H](c3ccc(-c4cccc(C)c4)cc3)[C@@H]2C1

Source: PubChem BioAssay (Broad Institute)
